Vif TR-FRET – HIV-1 Vif–A3G interaction blockers – biochemical, TR-FRET, GST-Vif 1-94, biotin-A3G peptide, dose response retest, primary screen (AID 1117319) | one-dose inhibition, %; IC50 in µM for titrated hits | hit rate 0.57% among 260,000 | TR-FRET GST-Vif / biotin-A3G peptide binding; higher % means a stronger effect; test concentration not given here; strong numbers were not always called active;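 active = above the screen mean plus three standard deviations and confirmed in dose response; inconclusive = results disagree or hit not tested in dose response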;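 note: Vif residues 1-94 fused to GST binding biotinylated APOBEC3G peptide 110-148; 0% = full assay without inhibitor and 100% = GST in place of GST-Vif; retest series ran down from 100 µM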
MLL AF4-AF9 inh – blocks AF4 peptide binding to human AF9 | inhibition, % at 10 µM | AID 651704 | hit rate 0.47% among 350,000 | AlphaScreen, biotin-AF4 peptide binding to FLAG-AF9;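 active = every replicate reaching a set inhibition limit, whatever the replicate mean, cut at about 25% in these data; inconclusive = mean inhibition reaches that limit but some replicates miss it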;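 note: 0% = plate neutral control median and 100% = total signal loss; the record names both 10 and 1 µM as test concentration; the first replicate is given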
RanGTP-Impb inh – disruptors of Ran-importin-beta complex formation – biochemical, FRET, CFP-Ran, YFP-importin-beta, homogeneous, primary screen | cell-free CFP-Ran/YFP-importin-beta FRET ratio | inhibition, % (test concentration not listed) | hit rate 1.1% among 300,000;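 active = most replicates above 15%; inconclusive = exactly half above 15%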;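 note: 0% = DMSO wells and 100% = Ran loaded with GDP instead of GTP; wells of about 40 µL received 100 nL stock; the first replicate is given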
Ecoli growth – blocks Escherichia coli growth | OD600 absorbance (no concentration beside the values) | OD600, 23 h; hits give low values | hit rate 0.21% among 330,000;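 active = OD600 absorbance below the run mean of sample wells minus 3.6 SD, in any replicate, cut at about 0.56 in these data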;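 note: stock transfer was 300 nL into about 60 µL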
UCH37 DUB inh – human UCH37 deubiquitinating enzyme inhibition; inhibition, % (no concentration beside the values); hit rate 0.33% among 330,000; purified proteasome/UCH37, Ub-AMC cleavage fluorescence; Q9Y5K5;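 active = mean of two replicates above 20%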;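 note: 0% = compound-free wells with enzyme and 100% = wells lacking proteasome; stock transfer was 100 nL into about 20 µL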
Target sequence (Q9Y5K5 whole entry, looked up): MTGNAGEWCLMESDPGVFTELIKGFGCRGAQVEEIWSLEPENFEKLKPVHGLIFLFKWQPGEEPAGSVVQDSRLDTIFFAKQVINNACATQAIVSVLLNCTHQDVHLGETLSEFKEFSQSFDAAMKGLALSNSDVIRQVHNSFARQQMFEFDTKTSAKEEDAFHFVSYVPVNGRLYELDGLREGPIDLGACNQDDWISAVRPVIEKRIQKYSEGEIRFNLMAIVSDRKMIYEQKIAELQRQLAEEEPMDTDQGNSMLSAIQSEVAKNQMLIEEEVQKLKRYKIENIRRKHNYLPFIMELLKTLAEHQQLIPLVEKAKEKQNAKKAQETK
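Material: Human UCH37 enzyme supplied as purified proteasome complex | Schedule: 30 min preincubation with enzyme, 25 min cleavage at room temperature | Detection: AMC fluorescence 355/460 nm | Measure: % inhibition of Ub-AMC cleavage fluorescence | Controls: Wells without proteasome as full block, compound-free enzyme plus substrate as uninhibited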
HNF4A DNA FP – change in binding of human HNF4 alpha to DNA; P41235; HNF4a-FITC DNA binding, fluorescence polarization, 1 h; activity change, % at 10 µM; hit rate 0.3% among 360,000; AID 1224865; in the data active = activity change above about 30%, passing the limit was not always enough;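 note: controls were the assay level and a saturating level of protein; the project sought stronger binding though the title names inhibitors; some compounds called inactive have numbers as strong as hits; positive values seem to mean higher polarization but the record does not say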
Target sequence (P41235 whole entry, looked up): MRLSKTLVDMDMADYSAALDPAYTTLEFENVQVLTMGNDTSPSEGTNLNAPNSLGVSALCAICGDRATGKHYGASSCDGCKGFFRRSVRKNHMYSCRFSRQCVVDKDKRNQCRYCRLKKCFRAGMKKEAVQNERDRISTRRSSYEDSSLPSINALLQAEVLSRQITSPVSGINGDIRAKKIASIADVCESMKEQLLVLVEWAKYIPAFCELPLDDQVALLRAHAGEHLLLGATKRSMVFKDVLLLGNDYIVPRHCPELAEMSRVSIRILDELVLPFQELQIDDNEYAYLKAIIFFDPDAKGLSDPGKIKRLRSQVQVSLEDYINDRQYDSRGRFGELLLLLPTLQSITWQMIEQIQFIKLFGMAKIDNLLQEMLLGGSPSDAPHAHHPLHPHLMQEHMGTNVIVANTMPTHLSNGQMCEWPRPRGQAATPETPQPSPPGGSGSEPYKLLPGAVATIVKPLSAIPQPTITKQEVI
FGF22 binding – binders of recombinant human FGF22 by thermal shift; SYPRO orange fluorescence; percent of sucrose octasulfate shift, DMSO zero; calls only at 9.99 µM; hit rate 1.5% among 340,000; AID 651658;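 active = melting point raised past a set limit in the mean and every replicate; inconclusive = no clear call; three in four hits are not shown here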
Target sequence (Q9HCT0 whole entry, looked up): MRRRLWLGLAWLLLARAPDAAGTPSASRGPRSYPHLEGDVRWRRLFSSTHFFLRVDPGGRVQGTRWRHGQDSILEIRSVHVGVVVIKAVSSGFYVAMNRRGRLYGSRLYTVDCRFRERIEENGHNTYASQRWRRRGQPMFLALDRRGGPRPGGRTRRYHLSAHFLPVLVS
Numbers without * were called inactive; i = inactive; ? = inconclusive; . = no result given. A portion of the library. The share of hits here may be higher or lower than overall.

entry	MLL AF4-AF9 inh	HNF4A DNA FP	RanGTP-Impb inh	FGF22 binding	Vif TR-FRET	molecule	UCH37 DUB inh	Ecoli growth
1	.	-6.8	1.3	.	8%	CCCn1c(NC(=O)C2COc3ccccc3O2)nc2ccccc21 (stereo not drawn)	1.6	0.76
2	0.0	1.0	.	i	.	COc1ccc(CN2C(=O)CCC2(C)c2nnnn2C2CCCCC2)cc1 (stereo not drawn)	.	.
3	.	1.9	0.4	.	10%	COc1ccc2c(c1OC)C(=O)N1c3cccc(Cl)c3C(=O)OC21 (stereo not drawn)	-0.6	0.65
4	.	4.0	13	.	11%	Cc1ccccc1C(C(=O)NCc1ccccc1)N(Cc1ccco1)C(=O)c1ccccn1 (stereo not drawn)	1.3	0.65
5	.	-2.9	-0.3	.	-6%	CCc1nnc(NC(=O)Cc2ccc(OCc3c(C)noc3C)cc2)s1	-1.3	0.73
6	-2.1	-0.8	-2.9	i	.	CN(Cc1ccccc1)C(=O)COC(=O)c1ccccc1Nc1ccccc1	-18	0.7
7	.	1.1	1.5	.	-1%	CCOC(=O)C(NC(=O)CC)(Nc1ccc(S(=O)(=O)Nc2cc(C)on2)cc1)C(F)(F)F (stereo not drawn)	-1.6	0.71
8	.	2.1	4.1	.	-6%	Cc1ccc(N2CCN(C(=O)CNS(=O)(=O)c3ccc(Br)s3)CC2C)cc1 (stereo not drawn)	0.6	0.73
9	.	0.1	-5.0	.	3.3µM*	COc1ccc(NC(=O)N2c3ccc(OC)cc3C(C)=CC2(C)C)cc1	-345	0.7
10	.	-5.7	4.0	.	.	CC(NC(=O)C1CCCN1S(=O)(=O)c1cccc2nsnc12)c1ccccc1 (stereo not drawn)	1.1	0.61
11	.	1.2	-0.9	.	2%	CNC(=O)C12CCC(C)(c3nc4cc(C)c(C)cc4nc31)C2(C)C (stereo not drawn)	4.8	0.69
12	.	11	?	.	11%	CN1c2ccccc2C(C)(C)C12C=Nc1c(ccc3ccccc13)O2 (stereo not drawn)	3.8	0.8
13	.	-2.4	-0.2	.	19%	Cc1ccc(C2N(c3ccccc3)C(=S)N3CCCN23)cc1 (stereo not drawn)	0.0	0.74
14	.	21	-2.7	.	?	COc1ccccc1NC(=O)c1sc2nc(-c3ccco3)ccc2c1N	-78	0.68
15	-1.1	3.0	3.1	i	-1%	CC1COc2ccccc2N1C(=O)c1ccc(Cl)cc1 (stereo not drawn)	1.7	0.7
16	-8.1	1.0	6.1	i	-7%	Cc1ccc(S(=O)(=O)N2CCC(C(=O)NNC(=O)c3ccncc3)CC2)cc1	2.4	0.65
17	.	-0.8	.	.	20%	N#CC(C#N)=C1C=CC=CN1/C(=C\c1ccco1)C(=O)c1ccc(-c2ccccc2)cc1	-8.5	0.71
18	-12	0.3	-0.6	i	6%	Cc1ccc(CN2CCNC(=O)C2CC(=O)O)o1 (stereo not drawn)	2.3	0.67
19	.	-2.7	6.7	.	2%	COC(=O)C1ON2OC(C(=O)OC)C(C(=O)OC)C2C1CC(C)=O (stereo not drawn)	4.1	0.71
20	.	0.0	?	i	-10%	N/N=C1\CCCc2c1[nH]c1ccc([N+](=O)[O-])cc21	.	.
21	-3.7	1.0	.	i	.	CCOC(=O)C1(C)CCN1C(=O)c1ccc(C(C)(C)C)cc1 (stereo not drawn)	.	.
22	-2.5	0.0	?	i	16%	CCNC(=S)NNC(=O)C1CCN(Cc2ccccc2)CC1	-2.3	0.69
23	0.7	4.7	5.7	i	.	Cc1nc2ccc(NC(=O)c3cc(Cl)ccn3)cc2s1	0.9	0.68
24	4.9	-3.6	1.5	i	22%	CCOC(=O)N1CCC(N2CCCC(C(=O)c3cccc(OC)c3)C2)CC1 (stereo not drawn)	2.1	0.7
25	2.1	-1.4	.	i	4%	Cc1ccnc(SCCn2c(N3CCC(C)CC3)nc3c2c(=O)[nH]c(=O)n3C)n1	.	.
26	-5.7	2.0	.	i	.	COCc1cccc(-c2csc(C(C)(O)c3cccc(F)c3)n2)c1 (stereo not drawn)	.	.
27	0.6	0.1	3.7	i	.	COc1ccc(-c2c(C)nn3c(Cl)c(C)c(C)nc23)cc1	2.5	0.61
28	1.2	-1.5	5.5	i	.	CCCC(=O)N1CCN(c2nc3ccc(Cl)cc3s2)CC1	4.5	0.69
29	-1.2	-6.3	2.9	i	3%	O=C(c1cccc([N+](=O)[O-])c1)N1CCc2ccccc21	1.5	0.67
30	1.4	3.5	.	i	8%	CC1(C2CC2)NC(=O)N(CC(=O)N2CCN(c3ccccc3)CC2)C1=O (stereo not drawn)	-0.7	0.63
31	.	11	-0.4	.	3%	CCc1ccc(-n2cccc2/C=C2/C(=N)N3C(=NC2=O)SN=C3S(C)(=O)=O)cc1	9.1	0.65
32	1.3	-1.2	?	i	-1%	O=c1c2ccccc2nnn1Cc1ccc(F)cc1	2.7	0.7
33	-4.9	5.0	0.8	i	9%	Nc1c(C(=O)N2CCOCC2)sc2nc3c(cc12)CCC3	1.6	0.71
34	.	-2.4	?	.	-7%	CCC(C(=O)N1CC2(C)CC1CC(C)(C)C2)N1C(=O)c2ccccc2C1=O (stereo not drawn)	-1.9	0.75
35	.	-1.9	1.9	.	1%	Clc1ccccc1CSc1nnc(Cn2cnc3ccccc32)n1-c1ccccc1	4.5	0.74
36	-0.7	3.2	-4.7	i	5%	COc1ccc(NC(=O)C2CCCN(c3cc(C)nc4ncnn34)C2)cc1 (stereo not drawn)	3.9	0.7
37	8.7	3.2	0.9	i	.	Cc1noc(/C=C/c2ccccc2F)c1S(=O)(=O)N1CCC(C(=O)N2CCN(C)CC2)CC1	2.6	0.68
38	-2.1	-1.3	.	i	1%	COc1ccccc1N1CCN(C(=O)C2Cc3ccccc3CN2C(=O)c2ccco2)CC1 (stereo not drawn)	1.9	0.68
39	2.5	-1.6	-1.3	i	-5%	COc1cc2c(cc1NC(=O)C(C)OC(=O)c1ccc(S(=O)(=O)Nc3ccccc3Cl)cc1)oc1ccccc12 (stereo not drawn)	2.2	0.7
40	-2.8	-4.9	1.5	i	.	Cc1ccccc1NC(=O)CN1C(=O)CSc2ccc(S(=O)(=O)N3CCCC3)cc21	0.0	0.67
41	.	2.0	1.1	.	.	O=c1[nH]c2ccccc2nc1/C=C(\O)C1CC1	-8.0	0.7
42	1.4	1.7	.	i	.	COCCN(Cc1ccc(OC)cc1)c1c(C)nc2ccc(C(=O)Nc3ccc(NC(C)=O)cc3)cn12	.	.
43	-1.4	-1.1	0.5	i	.	CCOc1ccc(CCNC(=O)c2nnc(CS(=O)(=O)c3ccccc3)o2)cc1OCC	2.8	0.67
44	-4.9	0.9	3.1	i	-5%	COc1ccc(/C=N/Nc2nc(N)cc(Cl)n2)cc1OC	.	.
45	.	-1.7	-1.1	.	-2%	CC(CC(=O)Nc1cc(C(F)(F)F)ccc1Cl)c1ccccc1 (stereo not drawn)	1.7	0.66
46	-1.1	-0.9	5.5	i	.	Cc1nnc(NC(=O)c2nc(S(=O)(=O)Cc3ccccc3C)ncc2Cl)s1	.	.
47	-0.3	1.8	.	i	.	CC(C)(C)NC(=O)C1(C)CCC(=O)N1C1CCN(Cc2ccccc2)CC1 (stereo not drawn)	.	.
48	0.2	-3.9	0.3	i	.	CC(C)[C@H](NC(=O)N1c2ccccc2NC(=O)[C@@H]1C(C)C)C(=O)N1CCC(C(=O)O)CC1	3.3	0.77
49	-14	8.7	?	i	1%	CCCCNC(=O)CS(=O)Cc1nc(-c2cccc(C)c2)oc1C (stereo not drawn)	3.8	0.73
50	-0.5	3.7	.	i	0%	COc1cc2c(cc1OC)CN(C(=O)CCNC(=O)c1ccc(Br)cc1)CC2	5.5	0.68
51	-2.2	0.4	-0.3	i	-3%	CC(C)C(=O)NCc1cc(-c2ccccc2)no1	6.0	0.7
52	2.1	5.3	.	i	5%	CC(=O)c1cccc(NC(=O)C(C)OC(=O)c2cc(C)oc2C)c1 (stereo not drawn)	-0.5	0.63
53	.	2.5	9.6	.	28%	CCn1c(=O)cc(SCC(=O)N(C)Cc2ccccc2)c2ccccc21	-1.7	0.66
54	5.8	-1.8	?	.	9%	COc1cc([N+](=O)[O-])cc(/C=N/NC(=O)C(O)(c2ccccc2)c2ccccc2)c1O	.	.
55	-0.6	2.6	1.4	i	-2%	CCCCCCCCCCSc1n[nH]c(NC(C)=O)n1	4.0	0.69
56	-1.5	-8.7	.	i	-4%	O=[N+]([O-])c1ccccc1N=Nc1c(O)[nH]c2ccc(F)cc12	.	.
57	.	2.6	-4.2	.	.	CCCNC(=O)CN(c1ccccc1)S(=O)(=O)c1ccc(OC)c(OC)c1	4.6	0.69
58	.	-3.8	.	.	2%	COc1ccc2ccccc2c1CN1CCN(C(=O)c2ccccc2)CC1	1.2	0.71
59	2.0	1.8	3.8	.	-1%	O=C(NC(=S)N1CCc2ccccc21)c1ccc(Br)o1	6.0	0.69
60	.	-1.5	6.8	.	-3%	O=C(NC1CC1)c1cc(=O)c2ccccc2o1	0.9	0.69

Some of these compounds in order of their number in Ecoli growth, rising.
entry	MLL AF4-AF9 inh	HNF4A DNA FP	RanGTP-Impb inh	FGF22 binding	Vif TR-FRET	molecule	UCH37 DUB inh	Ecoli growth
53	.	2.5	9.6	.	28%	CCn1c(=O)cc(SCC(=O)N(C)Cc2ccccc2)c2ccccc21	-1.7	0.66
50	-0.5	3.7	.	i	0%	COc1cc2c(cc1OC)CN(C(=O)CCNC(=O)c1ccc(Br)cc1)CC2	5.5	0.68
57	.	2.6	-4.2	.	.	CCCNC(=O)CN(c1ccccc1)S(=O)(=O)c1ccc(OC)c(OC)c1	4.6	0.69
51	-2.2	0.4	-0.3	i	-3%	CC(C)C(=O)NCc1cc(-c2ccccc2)no1	6.0	0.7
49	-14	8.7	?	i	1%	CCCCNC(=O)CS(=O)Cc1nc(-c2cccc(C)c2)oc1C (stereo not drawn)	3.8	0.73

Additional entries follow:
entry	MLL AF4-AF9 inh	HNF4A DNA FP	RanGTP-Impb inh	FGF22 binding	Vif TR-FRET	molecule	UCH37 DUB inh	Ecoli growth
61	.	1.2	-3.0	.	-2%	Cn1c(C(=O)OC(C(=O)NC2CCCCC2)c2ccccn2)cc2sccc21 (stereo not drawn)	3.7	0.7
62	-1.5	3.6	4.3	i	-6%	O=C(CCCc1nc2ccccc2s1)NC1CCOC1=O (stereo not drawn)	6.0	0.64
63	-58	-5.0	-189	i	.	COc1ccccc1C(=O)Oc1ccc2c(c1)O/C(=C\c1ccncc1)C2=O	6.1	0.67
64	-1.5	-2.7	2.3	i	.	O=C(C[C@H]1C(=O)N(CCc2ccccc2)C[C@@H]1Cc1ccccc1)Nc1ccccc1	2.6	.
65	.	-1.9	3.0	.	11%	COc1ccc(S(=O)(=O)N/N=C(/C)c2cccc(NC(=O)c3ccccc3Cl)c2)cc1	.	.
66	-0.7	-1.7	3.0	i	.	C=CCn1c(N)cc(=O)nc1SCC(=O)Nc1ccc(C(=O)OCC)cc1	-0.4	0.68
